Lassa entry inh – blocks Lassa virus binding to or entry into cells; Lassa virus pseudotype entry inhibition, cell reporter; control for the full effect not named in the record; Potency, µM (series often up to 37.9 µM), for the others: top-dose activity change, negative = inhibition, usual class: inhibitors; 300,000 compounds, 1.2% hits; AID 540256; active means well fitted inhibition curve with a large enough effect; inconclusive means small, poorly fitted or top-dose-only effect, or effect the other way; inactive means flat fitted curve, though single readings scatter; tested in HEK293 cells; also: % is scaled to controls: 0 for no effect and ±100 for the full control effect; nearly all actives have a fitted effect of over 50% in size; luciferase read-out
SARS PLpro yeast – inhibitors of SARS-CoV papain-like protease in yeast; 330,000 compounds, 0.19% hits; S. cerevisiae expressing SARS-CoV PLpro, growth rescue; control for the full effect not named in the record; Potency, µM (highest dose often 32.9 µM), for the others: at the top dose activity, positive = growth rescue; AID 485353; active means well fitted rising curve with a large enough effect; inconclusive means small, poorly fitted or top-dose-only effect; inactive means no such curve, though single readings can be large or run the other way; also: 0% is about no effect; nearly all actives have a fitted effect of over 55% in size; growth read by luminescence after 48 h
NS1 inh – influenza NS1 inhibition; S. cerevisiae slowed by influenza A NS1, growth recovery by OD600; Potency, µM (titrated, usually from 46.1 µM), for the others: top-dose activity, positive = more growth; AID 2326; 270,000 compounds, 0.4% hits; active means well fitted rising curve with a large enough effect; inconclusive means small, poorly fitted or top-dose-only effect; inactive means no such curve, though single readings can be large or run the other way; also: nearly all actives have a fitted effect of over 50% in size
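S. cerevisiae expressing influenza A NS1, grown in glucose, washed, then diluted 1:100 into pH 6.0 -URA galactose medium with 23 nl compound. Growth recovery read as OD600; NS1-free strain serves as control.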
Marburg entry inh – Marburg virus entry inhibition; Marburg virus pseudotyped entry inhibition, cell reporter; control for the full effect not named in the record; about a third of the inactives were read at about 46 µM; Potency, µM (top dose mostly 37.8 µM), inactives show at the top dose activity change, negative = inhibition, most hits filed as inhibitors; 300,000 compounds, 1.8% hits; active = well fitted inhibition curve with a large enough effect; inconclusive = small, poorly fitted or top-dose-only effect, or effect the other way; inactive = flat fitted curve, though single readings scatter; tested in HEK293 cells; about a fifth of its hits are not listed in these tables; also: % is scaled to controls: 0 for no effect and ±100 for the full control effect; luciferase read-out
Cruzain Triton – blocks cruzain activity in presence of Triton detergent; P25779; purified cruzain, Z-FR-AMC fluorescence, 0.01% Triton; Potency, µM, for inactives: max response, negative = inhibition, hits mostly inhibitors; 200,000 compounds, 0.43% hits; AID 1478;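 also: plate controls were neutral wells for no effect and buffer without enzyme for full effect; nearly all actives have a fitted effect of over 40% in size; top concentration of the series not given in the record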
Target sequence (P25779 123-467 limits assumed): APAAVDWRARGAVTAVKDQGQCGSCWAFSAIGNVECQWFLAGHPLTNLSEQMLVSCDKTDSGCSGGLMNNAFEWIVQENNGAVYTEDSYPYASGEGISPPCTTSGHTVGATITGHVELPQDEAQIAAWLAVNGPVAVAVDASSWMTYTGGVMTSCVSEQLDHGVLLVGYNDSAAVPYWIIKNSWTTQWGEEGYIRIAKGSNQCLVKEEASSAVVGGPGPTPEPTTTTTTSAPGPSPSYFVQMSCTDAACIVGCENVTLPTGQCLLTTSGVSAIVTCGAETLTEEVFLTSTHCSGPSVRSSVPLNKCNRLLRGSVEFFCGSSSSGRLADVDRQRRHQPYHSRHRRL
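Compounds were screened in titration against cruzain (1.5 nM) with 0.01% Triton X-100 to counter colloidal aggregation. Activity was the AMC fluorescence increase over 60 s after adding 2 uM Z-FR-AMC at pH 5.5.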
2A StopGo – FMDV 2A StopGo reporter, luciferase signal | Potency, µM (highest dose often 57.9 µM), without a hit: at the highest dose signal change, negative = less light | human cells with a luciferase reporter of 2A StopGo recoding; control for the full effect not named in the record | 410,000 compounds, 1.2% hits; active = well fitted falling curve with a large enough effect; inconclusive = small, poorly fitted or top-dose-only effect; inactive = no such curve, though single readings can be large or run the other way; tested in HEK293T cells; also: % is scaled to controls: 0 for no effect and ±100 for the full control effect; nearly all actives have a fitted effect of over 45% in size; luciferase light after 4 h
RE007 growth inh – less growth of the S. pombe RE007 Vpr strain; 360,000 compounds, 0.21% hits; S. pombe RE007 Vpr strain, BacTiter-Glo ATP luminescence, 24 h; control for the full effect not named in the record; Potency, µM (top dose mostly 92.2 µM), for the others: at the highest dose activity change, negative = less growth; active = well fitted falling curve with a large enough effect; inconclusive = small, poorly fitted or top-dose-only effect; inactive = no such curve, though single readings can be large or run the other way;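 also: % is scaled to controls: 0 for no effect and ±100 for the full control effect; nearly all actives have a fitted effect of over 50% in size; the assay follows cell death caused by Vpr and the record does not say whether a fall means rescue or toxicity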
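Fission yeast strain RE007, carrying one chromosomally integrated HIV-1 vpr copy, was seeded at OD 0.01 in PMG+AL medium with 23 nL pinned compound. After 24 h at 30 °C and 99% humidity, viability was read by BacTiter-Glo luminescence.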
Cruzain inh noDet – inhibitors of Trypanosoma cruzi cruzain without detergent; P25779; purified cruzain, Z-FR-AMC fluorescence, no detergent; Potency, µM, for inactives: max response, negative = inhibition, usual class: inhibitors; 200,000 compounds, 2.3% hits; AID 1476;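 also: plate controls were enzyme without inhibitor for no effect and buffer without enzyme for full effect; nearly all actives have a fitted effect of over 40% in size; top concentration of the series not given in the record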
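Purified cruzain at 1.5 nM, pre-incubated 15 min with compound at room temperature in 100 mM sodium acetate pH 5.5, 5 mM DTT, 0.00005% Triton X-100. Reaction started with 2 uM Z-FR-AMC; AMC fluorescence increase over 60 s gives rate.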
Numbers without * were called inactive; ? = inconclusive; . = not tested or not shown; & = joins results of further samples; [ ] = remark or other dose. Unless noted, calls follow the shape of the dose curve; as a rule, active = well fitted curve in the direction sought with a large enough effect; inconclusive = small, poorly fitted or top-dose-only effect, or another doubt; inactive = no such curve, though single readings can be large; an effect the other way counts as inactive or inconclusive. Potency is read from the fitted curve at half-maximal effect.

The line under a structure holds: Lassa entry inh	SARS PLpro yeast	NS1 inh	Marburg entry inh	Cruzain Triton	2A StopGo	RE007 growth inh	Cruzain inh noDet
- Cc1nc2ccccc2n1CCc1nc2c3ccccc3nc(SCc3ccc(C#N)cc3)n2n1
    19%[46.1 µM]	.	.	.	3.6%	-20%	.	-5%
- COc1ccc(NC(=O)c2ccc3c(SCC(=O)O)c4c(nc3c2)CCCC4)c(OC)c1
    7%[46.1 µM]	1%	.	22%&22%[46.1 µM]	-13%	-23%&-23%	1%	?
- CCCOc1ccc(C(=O)Nc2nc(C)c(Cc3ccc4c(c3)OCO4)s2)cc1
    10%	-4%	6%	35%	-1.4%	-19%	12%	-27%
- O=C(Cc1c(F)cccc1Cl)OCC(=O)N1CCc2ccccc21
    28%	0%	.	4%	.	63%[activator]	-10%	.
- Cc1cccc(OCC(=O)Nc2ccc(OCc3cc(=O)n4cc(C)ccc4n3)cc2)c1
    0%[46.1 µM]	.	.	.	2.9%	-28%	.	-3%
- O=C(COC(=O)Cc1ccsc1)Nc1ccccc1Cl
    -6%	-2%	.	?	.	-14%	-2%	.
- Cc1ccc(NC(=O)CN(C)C(=O)CSc2nccn2C)cc1
    7%[46.1 µM]	0%	.	9%[46.1 µM]	.	-7%	-12%	.
- C=CC[N+](C)(C)C/C(Cl)=C(\Cl)c1ccccc1
    -5%	-5%	5%	?	2.0%	-9%	13%	4%
- O=C(NCC1CCCO1)C1CCC(=O)N1Cc1ccc(F)cc1 (stereo not given)
    0%	0%	2%	1%	7.4%	0%	-7%	-5%
- COc1ccc(Cn2nnnc2C(c2cccs2)N2CCOCC2)cc1 (stereo not given)
    2%	-5%	0%	-3%	3.1%	-16%	-6%	6%
- Cc1ccc(Cn2ccccc2=N)cc1
    -6%	1%	0%	?	.	11%	-4%	.
- C=C(C)CNC(=S)NNC(=O)c1cc(C)oc1C
    ?	9%	18%	?	-0.7%	12%	20%	-7%
- COC(=O)c1c(C(=O)OC)c(-c2ccc(C)cc2)n2c1CCC2
    -23%	1%	-18%	-7%	4.7%	-6%	-5%	-6%
- O=C(CNC(=S)N(Cc1ccccc1)Cc1ccccc1F)NCc1ccccc1
    ?	-4%	.	?	.	33%[activator]	1%	.
- COc1ccc(COC(=O)c2cc(S(=O)(=O)N3CCCCC3)ccc2N2CCOCC2)cc1
    ?	-2%	.	?	.	?	-1%	.
- COc1ccc2oc(=N)c(C(=O)Nc3ccc(Br)cc3)cc2c1
    .	-7%	10%	.	.	13%	14%	.
- Nc1cccc(CCc2nc3ccccc3[nH]2)c1
    ?	22%	-8%	18%	-0.6%	44%[activator]	5%	5%
- Cc1ccc(C)c(NC(=O)CCN2CCC(C)CC2)c1
    15%	-3%	-2%	4%	.	1%	-12%	.
- COc1ccc2c(c1)CCc1c(C(=O)NCCc3ccc(OC)c(OC)c3)noc1-2
    -13%	7%	-7%	-20%	-2.4%	?	0%	20%
- CC(C)c1ccc(N(CC(=O)N/N=C/c2ccc(OC3CSC3)cc2)S(=O)(=O)c2ccccc2)cc1
    ?	4%	10%	-29%	0.2%	1%	-25%	?
- CCc1c(-c2ccccc2)[n+](=O)c2c(n1[O-])CCC2
    4%	0%	8%	-7%	.	-3%	1%	.
- COc1ccc(C(CC(=O)O)NC(=O)c2ccco2)cc1 (stereo not given)
    6%	9%	2%	-8%	5.3%	5%	-3%	-1%
- COc1ccc(NC(=O)C2CCC(CNS(=O)(=O)c3csc(C(N)=O)c3)CC2)cc1OC (stereo not given)
    .	2%	21%	.	.	-8%	25%	.
- O=C(NCc1ccc2c(c1)OCO2)C1CCC(=O)N1C1CCCCC1 (stereo not given)
    7%[46.1 µM]	6%	-1%	11%[46.1 µM]	.	0%	-12%	.
- COc1ccc(S(N)(=O)=O)cc1C(=O)OCC(=O)N1c2ccccc2NC(=O)C1(C)C
    -14%	7%	.	23%[46.1 µM]	.	1%	-5%	.
- Cc1cccc(C)c1OCC(=O)N/N=C/c1cccn1C
    -23%	16%	17%	21%	-5.8%	.	2%	-9%
- Cc1ccc(C)c(NC(=O)C2CCCN(S(=O)(=O)c3cccnc3)C2)c1 (stereo not given)
    .	1%	8%	.	.	-15%	2%	.
- CCOC(=O)C1(Cc2cccc(F)c2)CCN(C(=O)c2cscn2)CC1
    1%	-2%	-1%	14%[46.1 µM]	.	11%	-4%	.
- COc1ccc(Nc2nc3c(S(=O)(=O)c4ccccc4)nnn3c3ccsc23)cc1OC
    -17%[46.1 µM]	.	.	.	0.3%	7%	.	-17%
- CN(C)/C(CN1CCCCC1)=C1\N=C(c2ccccc2)OC1=O
    18%	2%	6%	0%	-4.5%	-11%	-9%	-6%
- CN(Cc1ccccc1)S(=O)(=O)c1ccc(F)c(C(=O)Nc2cccc(Cl)c2Cl)c1
    ?	.	.	.	6.4%	-13%	.	-5%
- Cc1ccc(-c2nn3c(C)nnc3c3ccccc23)cc1S(=O)(=O)N(C)CCO
    10%	4%	-3%	-10%	-0.9%	18%	-21%	21%
- Fc1cccc(F)c1CN1CCN(Cc2c(F)cccc2F)CC1
    10%	4%	11%	11%	-0.4%	14%	-3%	-8%
- O=C(CSc1ccc(Cl)cc1)N/N=C/c1ccc([N+](=O)[O-])o1
    .	4%	-51%	.	.	-12%	-6%	.
- Cc1ccc(C(=O)NNS(=O)(=O)c2ccccc2[N+](=O)[O-])cc1
    0%	13%	13%	-29%	-2.0%	6%	11%	1%
- COC(=O)C1=C(NC(=O)COc2ccc3ccccc3c2)CCS1
    6%	27%	3%	19%	-3.7%	-3%	4%	-19%
- COCCn1c(SCc2ccc(C(=O)OC)o2)nc2cc(Cl)ccc2c1=O
    0%	4%	-8%	?	-3.3%	.	14%	?
- Cc1ccc(/C=C/S(=O)(=O)NCC(=O)O)cc1
    -6%	1%	4%	-9%[46.1 µM]	.	1%	5%	.
- COc1cc(/C=C(\C#N)c2nc3ccccc3o2)ccc1O
    -29%	-3%	-53%	19%[46.1 µM]	.	11%	?	.
- Cc1ccc(N2C(=O)C3C4C=CC(CNC(=S)Nc5ccc(Cl)cc5)(O4)C3C2=O)cc1 (stereo not given)
    ?	-88%	-43%	?	-14%	-1%	22µM*	-9%
- COc1cc2c(cc1OC)CN(S(=O)(=O)c1cccc(F)c1)CC2
    6%[46.1 µM]	-3%	-2%	15%[46.1 µM]	.	-17%	1%	.
- COc1cccc(C2/C(=C(\O)c3ccc4c(c3)OCCO4)C(=O)C(=O)N2CC2CCCO2)c1 (stereo not given)
    0%	1%	7%	-5%	.	27%	-9%	.
- C=CCn1cc(C(=O)NCc2ccc(Cl)cc2)c(=O)c2cc(S(=O)(=O)N(CC)CC)ccc21
    0.4µM*	-9%	?	?	-1.2%	?	8%	13%
- Cc1ccc(CCNC(=O)c2c(C)oc3ncnc(N4CCOCC4)c23)cc1
    ?	.	.	.	-2.1%	-11%	.	14%
- Cc1ccc(S(=O)(=O)N2CCC(=O)N(CCOC(=O)Nc3cc(C)cc(C)c3)CC2)cc1
    -22%	-5%	-22%	-50%	0.1%&-2.3%	-21%	-13%	?
- COc1ccc(S(=O)(=O)Nc2nc3ccccc3s2)cc1OC
    9%	6%	-1%	5%	0.3%	150%[activator]	-4%	-4%
- CC(C)OCCCNc1ncnc2c1nc1n2CCCC1
    ?	0%	2%	15%	.	18%	-4%	.
- CC12C(=O)N(Cc3ccccc3)C(=O)C1C1C=CC2C1 (stereo not given)
    -12%	6%	?	2%	-0.9%	-28%	2%	6%
- Cc1cccc(N2CCN(S(=O)(=O)c3cc(-c4cc(C)no4)ccc3C)CC2C)c1 (stereo not given)
    .	6%	12%	.	.	0%	-10%	.
- COc1ccccc1NC(=S)N1CC(C)(C)C1=O
    .	-2%	3%	.	.	12%	-8%	.
- COc1ccccc1C(=O)Nc1ccc(NC(=O)c2ccco2)cn1
    22%	-7%	-54%	?	.	27%	-20%	.
- CCOCc1cn(CC(=O)c2ccc(Cl)cc2)c(C)nc1=N
    10%	0%	1%	3%	-2.0%	-13%	471%	-1%
- CSc1ccccc1C(=O)Nc1ccc2c(c1)CCC2
    -14%[46.1 µM]	-1%	-13%	?	.	26%	?	.
- CC(=O)Nc1ccc(S(=O)(=O)NC2(C(F)(F)F)NC(=O)N(CC(C)C)C2=O)cc1 (stereo not given)
    -6%	2%	.	15%[14.2 µM]	.	-13%	-11%	.
- NC(=O)CC(NC(=O)Cc1ccc(Br)cc1)c1ccc(NCc2ccc(F)c(F)c2)c([N+](=O)[O-])c1 (stereo not given)
    .	3%	-9%	.	.	-24%	15%	.
- CN(Cc1ccccc1)S(=O)(=O)c1ccc2c(c1)CCC(=O)N2
    ?	0%	21%	1%[46.1 µM]	.	?	1%	.
- Cc1cccc(-c2cc(NC(=O)c3ccccc3C)n(-c3ccccc3)n2)c1
    14%[46.1 µM]	.	.	.	-2.5%	24%	.	-17%
- O=C(Nc1ccccc1N1CCCCC1)C1CCN(S(=O)(=O)c2ccccc2C(F)(F)F)CC1
    ?	.	.	?	.	-21%	2%	.
- Cc1nn(-c2ccccc2)c(N2CCCC2)c1/C=N/NC(=O)C1CC1
    ?	3%	-4%	.	.	-26%	3%	.
- CCOc1ccc(C(=O)Nc2ccc(NC(=O)c3ccco3)c(Cl)c2)cc1Cl
    ?	-6%	6%	?	-1.4%	?	8%	?

Screening results as filed in PubChem.
